# Compound activity (PubChem BioAssay)
# CBX7 inh: inhibitors of human CBX7 binding to H3K27me3 peptide; O95931; AlphaScreen His6-CBX7 / biotin-H3K27me3 peptide binding; hits give low values; normalised signal (fraction of DMSO) (concentration not given with the values); 1.1% of 66,000 active; AID 1224903; in the data active = normalised signal below about 0.5;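 also: 100 nL library stock added to about 20 µL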
# Target sequence (O95931 whole entry, looked up): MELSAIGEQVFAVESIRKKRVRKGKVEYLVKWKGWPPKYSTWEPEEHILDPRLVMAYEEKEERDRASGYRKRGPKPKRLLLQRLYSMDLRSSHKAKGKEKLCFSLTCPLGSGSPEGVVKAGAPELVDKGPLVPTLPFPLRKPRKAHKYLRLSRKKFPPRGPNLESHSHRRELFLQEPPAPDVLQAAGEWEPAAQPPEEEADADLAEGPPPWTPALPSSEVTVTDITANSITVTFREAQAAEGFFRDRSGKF
# CBX7 inh z-score: further read-out of CBX7 inh, marked with its call; z-score; measured here: z-score of CBX7 signal; some inactives read as strong as hits; reference of the scale not given here;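 same signal on another scale; lower means less binding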
# * marks the source's active call; other numbers are inactive results. These rows are one share of the data. The share of hits here may be higher or lower than overall.
SMILES,CBX7 inh,CBX7 inh z-score
COc1ccc(Cc2nnc(-c3ccc(F)cc3)o2)cc1OC,1.05,1.82
Cc1ccnc(NC(=O)COc2ccc3oc4c(c3c2)CCCC4)c1,1.14,1.63
Cc1nc(S(=O)(=O)c2ccc(Cl)cc2)c(NCc2ccccc2)o1,1.01,0.337
Cc1oc(-c2cccc(Br)c2)nc1CN1CCC(C(=O)NCc2ccccc2)CC1,0.929,-1.15
COc1ccc(-n2ncc3c(Nc4cccc(F)c4)ncnc32)cc1,0.943,-0.2
O=C(O)c1ccc(CSc2nnc(COc3ccc(Cl)cc3Cl)o2)cc1,0.869,-1.9
Cc1ccc(C)c(Cc2c(C)nc3c(C(=O)NC4CCCC4)cnn3c2C)c1,1.01,0.308
c1ccc(Cn2c(CNc3nc4ccccc4n3Cc3ccccc3)nc3ccccc32)cc1,0.807,-5.1
CCN1CCN(c2ncc(C(=O)Nc3ccc(F)cc3)c3ccccc23)CC1,1.58,1.18
Cc1ccc2nc3c(c(C(=O)O)c2c1)CC(C(C)(C)C)CC3 (stereo not drawn),1.07,2.15
COc1ccc(NC(=O)C2CCN(c3nnc(-n4cccc4)s3)CC2)cc1OC,0.772,-3.75
Cc1cc(NC(=O)CSc2nccn2-c2cccc(Cl)c2)no1,0.998,-0.0354
CCN1CCN(CCNC(=O)c2ccc3c(c2)N=C(C)c2cc(Cl)ccc2S3)CC1,1.21,2.47
CCCCC(=O)Nc1cccc(-c2nc3cc(C)c(C)cc3o2)c1C,0.794,-2.73
CN(C)c1ccc(NC(=O)c2cc3c(n(-c4ccccc4)c2=O)CC(C)(C)CC3=O)cc1,1.19,0.838
Cc1oc(-c2ccccc2F)nc1CN1CCC(C(=O)NCc2ccccc2)CC1,1.06,0.469
CCCn1nnnc1NCc1ccccc1OCc1cccs1,1.07,2.12
COc1cccc(C(=O)Nc2c(-c3ccccc3)nc3cc(C)ccn23)c1OC,0.77,-6.6
CCCCN(CCCNC(=O)Cn1nc(-c2ccc(Cl)cc2)ccc1=O)c1ccccc1,0.922,-3.53
Cn1c(=O)[nH]c(=O)c2c1nc(CN1CCOCC1)n2Cc1ccccc1,1.01,0.283
CCC(=O)N1CCc2cc(S(=O)(=O)NC(C(=O)NCc3ccc(OC)cc3)C(C)C)ccc21 (stereo not drawn),0.993,-0.0148
O=C(NCc1ccccn1)C1CC(=O)N(C2CCCC2)C1 (stereo not drawn),0.91,-4.25
COc1ccc(-c2nc3cnccn3c2Nc2ccc3c(c2)OCCO3)cc1,0.926,-0.714
Cc1ccc(-c2noc(CCC(=O)Nc3cc(C)ccn3)n2)cc1,0.94,-0.927
COc1ccc(OCc2nc(C#N)c(NCCCn3ccnc3)o2)cc1,0.865,-5.9
CC(NC(=O)Cn1nc(-c2ccccc2)ccc1=O)c1ccccc1 (stereo not drawn),0.99,-0.543
O=C(O)c1c[nH]c2c(F)cccc2c1=O,1.01,0.32
O=C(Nc1cccnc1)c1cc2n(n1)C(C(F)(F)F)CC(c1ccc(Br)cc1)N2 (stereo not drawn),0.956,-0.858
CCC(=O)N1CCc2cc(S(=O)(=O)Nc3ccc4c(c3)OCO4)ccc21,0.863,-2.67
Nc1nonc1-c1noc(-c2c(F)cccc2F)n1,1.09,0.864
Cc1nnc(Nc2ccc(OC(F)(F)Cl)cc2)c2ccccc12,1.15,1.67
CN(C(=O)Cn1c(SCc2ccc(F)cc2)nc2ccncc21)C1CCCCC1,0.982,-0.437
Cc1cccc2nc(-c3cccnc3)c(NC3CCCCC3)n12,0.858,-0.194
COc1ccccc1N1CCN(c2ncc(C(=O)Nc3ccccc3C(F)(F)F)c3ccccc23)CC1,1.15,0.957
COc1ccc(CNC(=O)C2CCN(S(=O)(=O)c3cccc4cccnc34)CC2)cc1,1.02,0.201
Cc1ccc(-n2c(CCC(=O)O)ccc2-c2ccc(Br)cc2)cc1,1.03,0.815
Cc1ccc2nc(-c3ccc(NC(=O)CN4CCC(C(N)=O)CC4)cc3)sc2c1,1.19,1.46
Cc1c(C(=O)NCc2cccs2)oc2ccc(S(=O)(=O)N3CCOCC3)cc12,1.1,2.45
Cn1c(SCc2nc(C(c3ccccc3)c3ccccc3)no2)nnc1-c1cccs1,0.819,-4.13
COc1ccccc1-c1cc(C(=O)Nc2c(C)nn(Cc3ccc(Cl)cc3)c2C)no1,0.984,-0.415

# Look-ups from the entries so far.
# Result of `Cc1ccc(-n2c(CCC(=O)O)ccc2-c2ccc(Br)cc2)cc1` in CBX7 inh z-score: 0.815
# Result of `Cc1ccc2nc(-c3ccc(NC(=O)CN4CCC(C(N)=O)CC4)cc3)sc2c1` in CBX7 inh: 1.19

# Additional structures
SMILES,CBX7 inh,CBX7 inh z-score
O=C(Nc1ccccc1)c1cnn(-c2ccc(F)cc2)c1C1CCNCC1,1,0.11
CCCCc1ccc(-c2nc(-c3ccncc3)no2)cc1,1.21,3.19
CCC(C)[C@@H](C(=O)NCc1ccccc1C)N1Cc2ccccc2C1=O (stereo partly drawn),1.01,0.182
COc1ccc(C(c2sc3nc(C)nn3c2O)N2CCC(C)CC2)cc1OC (stereo not drawn),0.968,-1.53
COc1ccc(CN2CCN(Cc3ccc4ccccc4c3)CC2)c(OC)c1,0.931,-1.71
CCC(C)NC(=O)C1CC(c2cc(OC)ccc2OC)=NO1 (stereo not drawn),1.04,1.37
Cc1ccc(C)c(CN2C(=O)c3ccccc3Sc3ccc(C(=O)NCc4ccccn4)cc32)c1,0.948,-2.47
O=C(Nc1ccc(Br)cc1F)C1=CCN(S(=O)(=O)c2ccc(F)cc2)CC1,1.03,0.578
Cc1sc2ncn(CC(=O)NCCCC(=O)NC3CCCCCC3)c(=O)c2c1C,0.992,-0.169
COc1ccc(C(=O)c2oc3ccccc3c2NC(=O)COc2ccc(Cl)cc2)cc1,0.987,-0.263
CCCCN(C)S(=O)(=O)c1ccc(C(=O)Nc2sc3c(c2C(=O)OCC)CCN(C)C3)cc1,1.04,2.03
CCn1c(SCCOc2ccc(OC)cc2)nc2ccccc21,1.01,0.18
COc1ccc2c(c1)c(C(=O)N1CCN(c3ccccc3)CC1)c(C)n2-c1ccccc1,0.69,-14.9
CCCCNS(=O)(=O)c1ccc2nc(-c3cccnc3)cc(C(=O)O)c2c1,1.12,1.67
Cc1c(-c2ccc(OCC(=O)O)cc2)nc2ccc(Br)cc2c1C(=O)O,1.1,2.57
CCN(CC)CC(C)CNC(=O)C1CCN(S(=O)(=O)c2ccc(C)cc2)CC1 (stereo not drawn),1.05,2.04
O=C(NCc1cccnc1)C1CCN(C(=O)c2cc3sccc3n2Cc2ccc(Cl)cc2)CC1,0.979,-0.842
CCOC(=O)c1ccc2nc(NC(=O)c3ccc(Cl)cc3Cl)sc2c1,1.09,1.87
Cc1onc(-c2c(Cl)cccc2Cl)c1C(=O)N1CCc2ccccc2C1,0.765,-1.47
O=C(NCCCN1CCOCC1)c1ccc2c(c1)N(Cc1ccc(F)cc1Cl)C(=O)CS2,1.06,2.87
Cc1ccc(CN2CC34C=CC(O3)C(C(=O)NCc3cccnc3)C4C2=O)cc1 (stereo not drawn),1.02,1.17
CCCc1cc(=O)n2[nH]cc(-c3ccc(Cl)cc3)c2n1,0.709,-5.29
COc1cc(C(=O)NCc2nnc(SCC(=O)NCc3ccc(F)cc3)o2)cc(OC)c1OC,1.04,0.605
Cc1ccc(C)c(OCc2nc(-c3ccc(Br)cc3)no2)c1,1.24,0.288
COc1ccc(CNC(=O)c2cc(-c3ccc(OC)cc3)nc3ccccc23)cc1,1.05,0.111
CNC(=O)c1cc(Nc2nnc(-c3ccc(O)cc3)c3ccccc23)ccc1OC,0.762,-2.68
COc1ccccc1C1(C)CCc2oc3ccc(Cl)cc3c2-c2oc(C)cc21 (stereo not drawn),1.03,0.636
COc1cccc(CNc2ccc3c(c2)ncn3C(C)C)c1OC,0.741,-7.44
CNC(=O)c1ccc(Nc2nnc(-c3ccc(C)c(S(=O)(=O)NC)c3)c3ccccc23)cc1,1.12,3.09
COc1ccc(-n2ccnc2SCC(=O)Nc2cc(C)ccc2C)cc1,0.876,-1.9
Cc1cccc(NC(=O)Cn2cc(S(=O)(=O)c3ccc(F)cc3)c(=O)c3ccccc32)c1,0.959,-1.34
O=C(Cn1nc(-c2ccccc2)ccc1=O)NCCN1CCc2ccccc2C1,0.995,-0.144
COc1cccc(N2CCN(C(=O)c3cc4c(s3)-c3ccccc3OC4)CC2)c1,0.968,-0.783
C=CCN1C(=O)c2ccccc2Sc2ccc(C(=O)NCCCN3CCCC3=O)cc21,1.09,2.17
O=C(Nc1nc2ccccc2s1)c1ccc(-c2cccc(Cl)c2)o1,1.22,1.85
FC(F)(F)c1nnc2ccc(N3CCCCCC3)nn12,1.03,0.38
COc1ccc(C2Nc3ccccc3C(=O)N2c2ccccc2)cc1COc1ccccn1 (stereo not drawn),0.964,-0.617
Cc1ccc(-c2ccc(=O)n(CCC(=O)NCCCN3CCC(Cc4ccccc4)CC3)n2)cc1,1.02,0.404
O=C(CN(c1ccc(Cl)c(C(F)(F)F)c1)S(=O)(=O)c1ccccc1)NCc1ccccn1,0.865,-0.534
CCOC(=O)c1ccc2nc(C)cc(Nc3ccc(OCC)cc3)c2c1,0.969,-0.0365

# Single records, as listed above. Values in the order: CBX7 inh | CBX7 inh z-score
# COc1cccc(N2CCN(C(=O)c3cc4c(s3)-c3ccccc3OC4)CC2)c1 is entered as 0.968 | -0.783
# COc1ccc(C2Nc3ccccc3C(=O)N2c2ccccc2)cc1COc1ccccn1 (stereo not drawn) is entered as 0.964 | -0.617
# CNC(=O)c1cc(Nc2nnc(-c3ccc(O)cc3)c3ccccc23)ccc1OC is entered as 0.762 | -2.68

# New compounds follow:
SMILES,CBX7 inh,CBX7 inh z-score
COC(=O)c1c(NC(=O)COc2cccc(C(F)(F)F)c2)sc2c1CCCC2,1.02,0.241
Oc1ccc(-c2nnc(Nc3ccc(OC(F)(F)Cl)cc3)c3ccccc23)cc1,0.999,-0.00517
O=C(COc1ccc(Cl)cc1)NCc1nnc(SCC(=O)NCc2ccccc2)o1,1.05,0.704
Cc1ccccc1NC(=O)CSc1nc2ccc(N)cc2s1,0.95,-0.547
Oc1ccccc1-c1nc2c3c4c(sc3ncn2n1)CCCC4,0.909,-2.68
Cc1cc(C)cc(NC(=O)C2CCC(CNS(=O)(=O)c3cccc4cccnc34)CC2)c1 (stereo not drawn),0.995,-0.223
Cc1cccc(Nc2nc3ccccc3nc2NS(=O)(=O)c2ccc(Cl)cc2)c1,0.927,-2.11
CCCc1ncc(C(O)c2cccc(OC)c2)n1C (stereo not drawn),0.976,-0.973
COc1ccc(CCN2C(=O)N(c3ccc(OC)cc3)C(=O)C2CC(=O)Nc2ccc(F)cc2)cc1 (stereo not drawn),0.991,-0.354
Cc1ccc(Nc2c(-c3cccs3)nc3ccc(Br)cn23)cc1,1.05,1.77
NS(=O)(=O)c1ccc(CCNC(=O)C2CCCN(c3nc4ccccc4[nH]3)C2)cc1 (stereo not drawn),0.825,-2.01
CCCN(C(=O)Cn1nc(Cc2ccncc2)c2ccccc2c1=O)c1ccccc1C,0.984,-0.823
Clc1cccc(-n2cc(-c3ccccc3)c3c(NCc4ccc5c(c4)OCO5)ncnc32)c1,0.903,-2.76
Cc1ccc(OCc2nc(-c3ccc(Cl)cc3)no2)cc1C,1.27,0.309
OC(c1ccc(Cl)cc1)(c1ccc(Cl)cc1)c1cccnc1N1CCCCC1,1.1,1.68
CCOc1cc(-c2nc3ccccn3c2N)ccc1O,0.849,-1.08
CCC(C)c1ccc(OCC(=O)Nc2ccc(-c3nc4ncccc4o3)cc2)cc1 (stereo not drawn),1.04,0.665
COc1ccc(OC)c(CNc2sc3c(c2C(=O)Nc2cc(OC)ccc2OC)CCCC3)c1,0.579,-21.8
CCCCN(CCCC)CCNC(=O)CN1C(=O)C(CC)Oc2ccc(C)cc21 (stereo not drawn),0.982,-0.555
Cc1cc(C)c2nc(Nc3nc(C)cc(-c4ccccc4)n3)nc(C)c2c1,0.983,-0.464

# Structures shown so far containing a COOH group (6):
SMILES,CBX7 inh,CBX7 inh z-score
O=C(O)c1ccc(CSc2nnc(COc3ccc(Cl)cc3Cl)o2)cc1,0.869,-1.9
Cc1ccc2nc3c(c(C(=O)O)c2c1)CC(C(C)(C)C)CC3 (stereo not drawn),1.07,2.15
O=C(O)c1c[nH]c2c(F)cccc2c1=O,1.01,0.32
Cc1ccc(-n2c(CCC(=O)O)ccc2-c2ccc(Br)cc2)cc1,1.03,0.815
CCCCNS(=O)(=O)c1ccc2nc(-c3cccnc3)cc(C(=O)O)c2c1,1.12,1.67
Cc1c(-c2ccc(OCC(=O)O)cc2)nc2ccc(Br)cc2c1C(=O)O,1.1,2.57

# Carrying on.
SMILES,CBX7 inh,CBX7 inh z-score
O=C(NC1CCCC1)c1csc2c1CCCCC2,1.06,1.79
COC(=O)c1ccccc1NC(=O)C1CCN(c2nc3ccccc3[nH]2)CC1,1.14,1.63
Cc1cccc(-c2cc(C(=O)NCc3ccncc3)c3ccccc3n2)c1,1.02,0.515
COc1ccc(CCNC(=O)C2CC(=O)N(C3CCCCC3)C2)cc1OC (stereo not drawn),1.12,3.03
O=C1CC(NCCc2ccccn2)C(=O)N1c1ccc(Cl)cc1 (stereo not drawn),0.167*,-12.8*
CCOc1ccc(N2C(=O)CC(N3CCN(c4cccc(Cl)c4)CC3)C2=O)cc1 (stereo not drawn),1.02,0.149
COc1ccc(C2C(=O)N(C3CCCCC3)CC(=O)N2C2CCCCCCC2)cc1 (stereo not drawn),1.43,1.73
COc1ccc(CNc2ccc3c(c2)ncn3C(C)(C)C)c(OC)c1,0.589,-11.8
O=C1Nc2cc(C(=O)N3CCN(c4ccc(Cl)cc4)CC3)ccc2Nc2ccccc21,0.659,-2.74
Cc1ccc(S(=O)(=O)N(CC(O)CN2CCCC2)c2cccc(C)c2)cc1 (stereo not drawn),1.18,1.74
O=C(Nc1ncc(Cc2ccccc2)s1)C1CCCCC1,1,0.00527
